Source: PubChem
Cruzain inh noDet – inhibitors of Trypanosoma cruzi cruzain without detergent; hit rate 2.3% among 200,000; purified cruzain, Z-FR-AMC fluorescence, no detergent; Potency, µM, without a hit: max response, negative = inhibition, actives largely listed as inhibitors; P25779;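 note: plate controls were enzyme without inhibitor for no effect and buffer without enzyme for full effect; nearly all actives have a fitted effect of over 40% in size; top concentration of the series not given in the record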
Target sequence (P25779 123-467 limits assumed): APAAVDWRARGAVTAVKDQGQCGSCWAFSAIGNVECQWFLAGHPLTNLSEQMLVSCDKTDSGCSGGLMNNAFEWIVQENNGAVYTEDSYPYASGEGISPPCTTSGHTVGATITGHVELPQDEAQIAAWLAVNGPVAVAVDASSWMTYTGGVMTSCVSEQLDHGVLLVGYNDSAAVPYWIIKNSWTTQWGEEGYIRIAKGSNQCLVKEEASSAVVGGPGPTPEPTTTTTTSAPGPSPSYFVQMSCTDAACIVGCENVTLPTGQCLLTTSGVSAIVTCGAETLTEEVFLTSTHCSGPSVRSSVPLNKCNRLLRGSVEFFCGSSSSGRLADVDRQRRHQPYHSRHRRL
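Detergent-free condition (0.00005% Triton X-100) in acetate buffer pH 5.5 with DTT. 1.5 nM enzyme and compound were pre-mixed 15 min, then 2 uM Z-FR-AMC substrate added; reaction progress from fluorescence change between first and third reads (60 s).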
NS1 inh – blocks influenza NS1 protein function; hit rate 0.4% among 270,000; Potency, µM (highest dose often 46.1 µM), for the others: top-dose activity, positive = more growth; S. cerevisiae slowed by influenza A NS1, growth recovery by OD600; active means well fitted rising curve with a large enough effect; inconclusive means small, poorly fitted or top-dose-only effect; inactive means no such curve, though single readings can be large or run the other way; note: nearly all actives have a fitted effect of over 50% in size
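OD600 was taken as the measure of yeast growth restored by compound in an NS1-expressing S. cerevisiae strain. Cells had been washed out of glucose medium and diluted 1:100 into galactose -URA medium, pH 6.0.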
Cruzain inh Det – cruzain (T. cruzi) inhibition with detergent; P25779; purified cruzain, Z-FR-AMC fluorescence, 0.01% Triton; Potency, µM, for inactives: max response, negative = inhibition, usual class: inhibitors; hit rate 0.43% among 200,000;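 note: plate controls were neutral wells for no effect and buffer without enzyme for full effect; nearly all actives have a fitted effect of over 40% in size; top concentration of the series not given in the record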
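15 min RT preincubation of 1.5 nM cruzain with compound, then 2 uM Z-FR-AMC added; kinetic AMC fluorescence, 60 s delta. Triton X-100 0.01%, pH 5.5.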
2A StopGo – lowers the luciferase signal of an FMDV 2A StopGo reporter | human cells with a luciferase reporter of 2A StopGo recoding; control for the full effect not named in the record | Potency, µM (doses to about 57.9 µM), for inactives: top-dose signal change, negative = less light | hit rate 1.2% among 410,000 | AID 1159524; active = well fitted falling curve with a large enough effect; inconclusive = small, poorly fitted or top-dose-only effect; inactive = no such curve, though single readings can be large or run the other way; tested in HEK293T cells; note: % is set by controls: 0 for no effect and ±100 for the full control effect; nearly all actives have a fitted effect of over 45% in size; luciferase light after 4 h
Lassa entry inh – Lassa virus entry inhibition; Lassa virus pseudotype entry inhibition, cell reporter; control for the full effect not named in the record; Potency, µM (highest dose often 37.9 µM), inactives show at the top dose activity change, negative = inhibition, usual class: inhibitors; hit rate 1.2% among 300,000; active means well fitted inhibition curve with a large enough effect; inconclusive means small, poorly fitted or top-dose-only effect, or effect the other way; inactive means flat fitted curve, though single readings scatter; tested in HEK293 cells; note: % is set by controls: 0 for no effect and ±100 for the full control effect; nearly all actives have a fitted effect of over 50% in size; luciferase read-out
MARV entry inh – inhibitors of Marburg virus binding or cell entry; AID 540276; hit rate 1.8% among 300,000; Potency, µM (highest dose often 37.8 µM), for inactives: at the top dose activity change, negative = inhibition, hits mostly inhibitors; Marburg virus pseudotyped entry inhibition, cell reporter; control for the full effect not named in the record; about a third of the inactives were read at about 46 µM; active = well fitted inhibition curve with a large enough effect; inconclusive = small, poorly fitted or top-dose-only effect, or effect the other way; inactive = flat fitted curve, though single readings scatter; tested in HEK293 cells; about a fifth of its hits are not listed in these tables; note: % is set by controls: 0 for no effect and ±100 for the full control effect; luciferase read-out
SARS PLpro yeast – blocks SARS-CoV papain-like protease in a yeast assay; S. cerevisiae expressing SARS-CoV PLpro, growth rescue; control for the full effect not named in the record; Potency, µM (highest dose often 32.9 µM), without a hit: at the highest dose activity, positive = growth rescue; AID 485353; hit rate 0.19% among 330,000; active means well fitted rising curve with a large enough effect; inconclusive means small, poorly fitted or top-dose-only effect; inactive means no such curve, though single readings can be large or run the other way; note: 0% is about no effect; nearly all actives have a fitted effect of over 55% in size; growth read by luminescence after 48 h
RE007 growth inh – less growth of the S. pombe RE007 Vpr strain; S. pombe RE007 Vpr strain, BacTiter-Glo ATP luminescence, 24 h; control for the full effect not named in the record; Potency, µM (titrated, usually from 92.2 µM), for the others: top-dose activity change, negative = less growth; hit rate 0.21% among 360,000; AID 651644; active = well fitted falling curve with a large enough effect; inconclusive = small, poorly fitted or top-dose-only effect; inactive = no such curve, though single readings can be large or run the other way;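 note: % is set by controls: 0 for no effect and ±100 for the full control effect; nearly all actives have a fitted effect of over 50% in size; the assay follows cell death caused by Vpr and the record does not say whether a fall means rescue or toxicity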
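Fission yeast strain RE007, carrying one chromosomally integrated HIV-1 vpr copy, was seeded at OD 0.01 in PMG+AL medium with 23 nL pinned compound. After 24 h at 30 °C and 99% humidity, viability was read by BacTiter-Glo luminescence.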
* = called active by the depositor; ? = inconclusive; · = no result given; [ ] = remark or other dose. Unless noted, calls come from the whole dose curve; as a rule, active = well fitted curve in the direction sought with a large enough effect; inconclusive = small, poorly fitted or top-dose-only effect, or another doubt; inactive = no such curve, though single readings can be large; an effect the other way counts as inactive or inconclusive. Potency is the fitted concentration of half-maximal effect.

Below each compound – SARS PLpro yeast | Cruzain inh Det | MARV entry inh | 2A StopGo | Lassa entry inh | RE007 growth inh | NS1 inh | Cruzain inh noDet
CCN(CC)CCCNC(=O)c1cn(C)c2ccc(S(=O)(=O)N3CCOCC3)cc2c1=O
    · | -4.4% | 0%[46.1 µM] | ? | 16%[46.1 µM] | · | · | -30%
Cc1noc(C)c1C(=O)Nc1nc(C23CC4CC(CC(C4)C2)C3)cs1
    4% | -3.5% | -13% | 3% | ? | -2% | -18% | 1%
O=C(CCC1N=C2c3ccccc3N=C(SCC(=O)NCC3CCCO3)N2C1=O)NCc1ccc(F)cc1 (stereo not given)
    5% | · | · | -2% | · | 0% | 10% | ·
Cc1cc(C)cc(NC(=O)Cn2c(=O)n(-c3ccc(C)c(C)c3)c(=O)c3oc4ccccc4c32)c1
    · | -1.4% | · | 1% | -2%[46.1 µM] | · | · | -13%
NC(=O)CC(NC(=O)c1cccc(Br)c1)c1ccc(NC2CCC2)c([N+](=O)[O-])c1 (stereo not given)
    11% | · | · | -18% | · | -3% | 32% | ·
CC[n+]1c(C)sc2c(C)cc(C)cc21
    -10% | -2.8% | -7%[46.1 µM] | -4% | -12% | -3% | 2% | 4%
COc1ccc2[nH]cc(CCN=C(NC(=O)c3ccccc3F)Nc3nc(C)cc(C)n3)c2c1
    · | 1.0% | ? | -12% | ? | · | · | 0%
Cc1c(C)n(Cc2ccccc2)c2ccc(C(=O)NCc3ccccc3F)cc12
    · | 0.8% | · | 17% | -29%[46.1 µM] | · | · | ?
S=C1c2ccccc2CN1c1ccccc1
    8% | -4.7% | -5% | 26% | 3% | -23% | ? | -6%
O=C(Nc1ccc([N+](=O)[O-])cc1)c1cccc(S(=O)(=O)Nc2ccccn2)c1
    5% | · | -9%[46.1 µM] | 7% | -16% | -5% | -3% | ·
COCC(C)N1CCC(n2nccc2NC(=O)CCCc2ccccc2)CC1 (stereo not given)
    -8% | · | -22%[46.1 µM] | -10% | 0%[46.1 µM] | 5% | 11% | ·
COc1ccc(CCc2nc(-c3cccs3)no2)cc1
    0% | · | · | 32%[activator] | · | -13% | -25% | ·
C/C(=N\NC(=O)C1CC1)c1cccnc1
    -5% | 0.2% | -25% | -3% | 6% | 10% | 12% | 3%
C/C(=N\OC(=O)c1ccc(Cl)c(Cl)c1)c1sc(C)nc1C
    -3% | -10% | ? | -6% | 15% | 0% | -2% | ?
CC(Oc1cccc(F)c1)C(=O)/C=C\N(C)C (stereo not given)
    10% | 2.3% | 3% | -18% | 1% | -5% | 7% | 4%
Cc1ccnc(NC(=O)CCC(=O)N(CC(=O)NC2CCCCC2)Cc2ccc3c(c2)OCO3)c1
    7% | -1.9% | · | · | · | · | -4% | 3%
Cc1[nH]c2ccccc2c1C(=O)C(=O)N1CCN(c2ccccc2F)CC1
    -10% | · | · | -1% | · | 20% | -26% | ·
CCOC(=O)c1nn(-c2ccc(OCC)cc2)c2nc(-c3cccc(OC)c3)c(C#N)c(=O)n12
    1% | -5.5% | 5% | ? | ? | 10% | 8% | 6%
COc1cc(/C=N/n2nnnc2N)cc(Cl)c1OC
    · | · | ? | 3% | -21%[46.1 µM] | -3% | · | ·
C=CCSc1nc(C)c(Cc2cccc3ccccc23)c(=O)[nH]1
    0% | · | ? | 7% | 3%[46.1 µM] | 10% | ? | ·

Below each compound – SARS PLpro yeast | Cruzain inh Det | MARV entry inh | 2A StopGo | Lassa entry inh | RE007 growth inh | NS1 inh | Cruzain inh noDet
N#Cc1cnc(NCc2ccc(Cl)cc2Cl)nc1
    0% | · | · | 11% | · | 8% | 6% | ·
Cc1ccccc1NC(=S)N(CCCN1CCCCC1)Cc1ccco1
    16% | -0.2% | -1% | -8% | -1% | 1% | -4% | 4%
COC(=O)c1nn(-c2ccccc2)c(Sc2ccc(Cl)cc2)c1/C=N/O
    -5% | -5.2% | -16% | ? | -16% | 1% | 4% | 29%
O=C(CC1CCCCC1)NCc1nc(-c2ccccc2)no1
    2% | · | · | 22% | · | -22% | -64% | ·
Cc1c(C=NNc2ccccc2)[nH]c(=O)[nH]c1=O
    · | · | -3% | 4% | 6% | 172% | · | ·
CCOC(=O)c1c(-c2ccc(C)s2)csc1NC(=O)c1ccco1
    3% | 4.9% | 4% | · | · | · | -3% | -18%
Cc1onc(-c2ccccc2)c1C(=O)Nc1cccc2nsnc12
    0% | 1.0% | -13% | -19% | -7% | 11% | -5% | ?
O=C(CNC(=O)Cc1ccccc1)N=Nc1c(O)[nH]c2ccccc12
    -4% | · | 2%[46.1 µM] | 13% | 1% | -19% | -12% | ·
CC(=O)c1ccc(OCC(=O)OCC(=O)N(CC(C)C)c2c(N)n(Cc3ccccc3)c(=O)[nH]c2=O)cc1
    -3% | · | 17% | ? | -2% | -4% | · | ·
NS(=O)(=O)c1ccc(CNC(=O)/C=C/c2c(Cl)cccc2Cl)cc1
    0% | -3.8% | 0% | · | · | · | 15% | -10%
CCCCn1c(N)c(N(CC(C)C)C(=O)c2ccc(COc3ccccc3)o2)c(=O)[nH]c1=O
    1% | · | -28%[46.1 µM] | -7% | 27%[46.1 µM] | 6% | 27% | ·
Nc1ccccc1C=C1Cc2ccccc2C1=O
    · | · | 7.9µM* | -48% | ? | -7% | · | ·
Brc1ccc2cccnc2c1
    0% | -0.7% | ? | 8% | -1% | -8% | 3% | -4%
Cc1oc2ccc(O)c(CN3CCN(Cc4ccccc4)CC3)c2c1C(=O)Nc1cccc(Cl)c1C
    · | -2.0% | 6%[46.1 µM] | ? | 14%[46.1 µM] | · | · | -18%
Cc1cccc(NC(=O)C(=O)NNC(=O)c2ccc(C(C)(C)C)cc2)c1
    2% | · | 16%[46.1 µM] | 3% | -14%[46.1 µM] | ? | -7% | ·
O=C(CCCN1C(=O)CCC1=O)Nc1ccc2c(c1)OCO2
    0% | 8.3% | 4% | 1% | 0% | 2% | 1% | 0%
COc1cccc(CC2(CO)CCN(Cc3cccn3-c3cccnc3)CC2)c1
    -2% | · | ? | -14% | 1% | 1% | 2% | ·
CN(C)CCN1C(=O)CCC2(C)C1=CCC1C2CCC2(C)C1CCC2(C)O (stereo not given)
    · | · | -7% | 3% | -2% | 5% | · | ·
Cn1nc(C(F)(F)F)c2cc(C(=O)NC3CC3)sc21
    -3% | -3.6% | -2% | -17% | -5% | -21% | 3% | -7%
CN(CC(=O)Nc1ccc(F)cc1)C(=O)c1cc(-c2ccco2)nc2ccccc12
    -3% | · | -14%[46.1 µM] | ? | ? | 6% | · | ·

Below each compound – SARS PLpro yeast | Cruzain inh Det | MARV entry inh | 2A StopGo | Lassa entry inh | RE007 growth inh | NS1 inh | Cruzain inh noDet
COc1c(C)cccc1C(=O)Nc1ccc(N2CCOCC2)c(Cl)c1
    -20% | -4.4% | ? | 13% | ? | -6% | -79% | 3%
Cc1cccc(C(C#N)c2nc3ccccc3nc2C(F)(F)F)c1 (stereo not given)
    · | · | -27% | 6% | 11% | 1% | · | ·
CCC(C(=O)OCC(=O)N(CCOC)c1c(N)n(Cc2ccccc2)c(=O)[nH]c1=O)c1ccccc1 (stereo not given)
    1% | · | 30% | -11% | 1% | -9% | 10% | ·
CN(Cc1cccnc1)Cc1cn(C)nc1-c1ccc(Oc2ccccc2)cc1
    1% | · | -25%[46.1 µM] | -3% | ? | -7% | 1% | ·
CCc1nc(C)cn1S(=O)(=O)c1cc([N+](=O)[O-])ccc1Cl
    -2% | · | ? | 20µM* | ? | 0% | -4% | ·
COc1ccc2c(C)cc(=O)[nH]c2c1
    -2% | -7.5% | 21% | -21% | 4% | -2% | 5% | -9%
Cc1ccc(NC(=O)CCn2c(=S)oc3ccccc32)cc1
    -4% | · | 6%[46.1 µM] | -3% | ? | -21% | · | ·
COc1ccc(N(CC(=O)NCc2ccccc2OC)S(=O)(=O)c2ccc(C)cc2)cc1Cl
    -6% | · | · | -23% | · | 0% | 14% | ·
CC(C)N1CCN(Cc2cc(F)ccc2-n2cccn2)CC1CCO (stereo not given)
    0% | · | 7%[46.1 µM] | -6% | -11% | 2% | -3% | ·
CC(=O)Nc1ccc(NC(=O)CC2Nc3cccc4cccc(c34)NC2=O)cc1 (stereo not given)
    3% | -2.9% | 0% | -5% | 1% | 9% | 7% | -6%
Cc1ccc(S(=O)(=O)NNC(=O)C2CCN(S(=O)(=O)c3ccc(C)cc3)CC2)cc1
    3% | 2.4% | 2% | 0% | 2% | -1% | -6% | 2%
O=C(NO)c1ccccc1C(F)(F)F
    3% | · | ? | 0% | -20% | 10% | · | ·
COc1ccccc1OP(=O)(Nc1cccnc1)Oc1ccccc1OC
    9% | 1.3% | ? | 0% | -21% | -6% | -13% | 3%
Cc1nc2c(Cl)cc(Cl)cc2[nH]1
    -39% | 0.7% | 4% | 7% | 22% | -2% | -147% | -15%
COc1cccc(CC(=O)NC2CCCN(Cc3ccccc3F)C2)c1 (stereo not given)
    -5% | · | · | 12% | · | -5% | 15% | ·
CCOc1ccc(CCNC(=O)CN2CCN(Cc3ccc(Cl)cc3)C2=O)cc1OCC
    · | -4.8% | 5µM* | -28% | 1%[46.1 µM] | · | · | ?
CCCC(=O)Nc1nc(C)c(C(C)=O)s1
    0% | · | ? | -1% | 2%[46.1 µM] | 0% | -5% | ·
COc1ccccc1CNC(=O)c1sccc1C
    -1% | · | 2%[46.1 µM] | 49%[activator] | 11% | 3% | -2% | ·
OC1CCN(Cc2cccc3ccccc23)CC1
    -1% | · | · | -6% | · | -11% | 0% | ·
Cc1cccc(NC(=O)c2ccc(F)c(S(=O)(=O)N(C)C3CCCCC3)c2)c1
    · | -1.2% | · | -28% | -15%[46.1 µM] | · | · | -4%
Cc1ccccc1CC(=O)NCc1cccnc1
    1% | · | 4% | -7% | ? | -6% | 25% | ·
O=C(CCc1ccccc1)N=C1SC2CS(=O)(=O)CC2N1c1ccc(F)cc1 (stereo not given)
    0% | · | -13%[46.1 µM] | 4% | -10%[46.1 µM] | -1% | -1% | ·
CC1Cc2ccccc2N1C(=O)Cn1nc(C(=O)O)c2ccccc2c1=O (stereo not given)
    1% | -2.8% | 8% | -7% | 8% | -11% | -36% | 2%
